Screening data from PubChem BioAssay.
VACV mCherry inh: inhibitors of vaccinia virus infection (mCherry reporter signal); Potency, µM (top dose mostly 36.5 µM), for the others: at the top dose activity change, negative = inhibition, hits mostly inhibitors; AID 720579; Vaccinia virus mCherry reporter infection, fluorescence; about a quarter of the inactives have no number; 310,000 compounds, 0.63% hits; active = well fitted inhibition curve with a large enough effect; inconclusive = small, poorly fitted or top-dose-only effect; inactive = no such curve, though single readings can be large or run the other way; tested in A549 cells; further: nearly all actives have a fitted effect of over 35% in size; inactives centre near -10
VACV Venus inh: inhibitors of vaccinia virus (Venus reporter) | Vaccinia virus Venus reporter expression, fluorescence | Potency, µM (titrated, usually from 36.5 µM), for inactives: at the top dose activity change, negative = inhibition, actives largely listed as inhibitors | 330,000 compounds, 0.46% hits | AID 720580; active means well fitted inhibition curve with a large enough effect; inconclusive means small, poorly fitted or top-dose-only effect; inactive means no such curve, though single readings can be large or run the other way; tested in A549 cells; further: nearly all actives have a fitted effect of over 30% in size; inactives centre near -10
Starred values were filed as active, the others as inactive; i = inactive; ? = inconclusive; . = not tested or not shown; & = joins results of further samples; [ ] = dose if it differs, or a comment. On the % scale 0 is the no-effect control and ±100 the full control effect; potency means the concentration at half of the fitted maximal effect.

SMILES	VACV mCherry inh	VACV Venus inh
CC(N)C(=O)NC1C2C(=C(O)CC(O)C2O)C(=O)OC1(C)C(Cl)Cl (centres undefined)	?	1µM*
Cc1c2cnn(CC(=O)N3CCCCC3)c(=O)c2c(C)n1Cc1ccc(F)cc1	-5.4%	-17.1%
CC(Sc1ncc(C(F)(F)F)cc1Cl)C(=O)NCC1CCCO1 (centres undefined)	-11.5%	-9.1%
CC(NC(=O)CC1Sc2ccccc2NC1=O)c1ccccc1 (centres undefined)	-25.5%	?
O=C(Nc1ccc2c(c1)CN(Cc1ccco1)CC2)C1CCCO1 (centres undefined)	i	-2.7%
Cc1cc(C(=O)COc2ccc3ccc(=O)oc3c2)c(C)n1C	-13.9%	-10.3%
Cc1onc(-c2ccccc2Cl)c1C(=O)N1C=CC(C(F)(F)F)=NCC1	?	-19.9%
Nc1ccc([N+](=O)[O-])cc1	-0.7%	-11.8%
Cc1nc2ccc(S(=O)(=O)NCC(=O)NCc3ccc(Cl)cc3)cc2s1	-14.5%	0.0%[7.34 µM]
Cc1ccccc1OCC(=O)NCCNC(=O)c1ccccn1	-2.8%	6.6%
O=C(CNc1ccc2ccccc2c1)N/N=C/c1ccc(OC(=O)/C=C/c2ccco2)cc1	?	-9.2%
O=C(c1ccco1)N1CCN(c2ncnc3c2cnn3-c2ccccc2)CC1	.	-8.9%
COc1ccc(NC(=S)Nc2ccccn2)cc1	?	10.2%
CCN1C(=NCCc2ccc([N+](=O)[O-])cc2)N[C@@H](c2ccccc2)[C@H](C(=O)OC)[C@H]1C	-13.4%	-13.8%
COC(=O)CN(c1ccccc1)S(=O)(=O)c1ccccc1	-8.0%	-4.9%
O=C1OCC/C1=C\OCCCO/C=C1\CCOC1=O	i	-3.7%
Cc1cc(C)n(-c2ncccc2[N+](=O)[O-])n1	-9.7%	-10.0%
COC(=O)c1cc(Br)ccc1N(Cc1cc(OC)cc(OC)c1)S(C)(=O)=O	-9.6%	-23.6%&-11.2%
CN(C)CCNC(=O)c1cccc2c(-c3ccc(F)c(F)c3)coc12	-3.0%	-5.1%
CCOC(=O)C1CCN(Cc2cc(C(C)C)c(O)c(C(C)C)c2)CC1	?	?
CC(=O)c1cccc(NS(=O)(=O)c2cc3c(cc2C)NC(=O)CO3)c1	-8.3%	-3.0%
COc1ccc(NC(=O)c2nnn(-c3ccc(C(C)C)cc3)c2C)c(OC)c1	i	0.6%
CCCCOc1ccc(C2/C(=C(/O)c3ccc4c(c3)CC(C)O4)C(=O)C(=O)N2CCCN2CCOCC2)cc1OC (centres undefined)	-10.1%	-12.3%
CC1(C(=O)NCc2ccccc2)CN(S(C)(=O)=O)CC(=O)N1CCc1c[nH]c2ccccc12 (centres undefined)	-19.7%	1.8%
CCOC(=O)/C(C#N)=C/c1ccc(SC)cc1	i	-17.1%

Later entries.
SMILES	VACV mCherry inh	VACV Venus inh
COc1cccc(CNc2ccc3c(c2)ncn3C)c1OC	-1.5%&-3.3%	-17.0%&3.5%
COc1cc(NC(=O)Cn2c(=O)ccc3cc(S(=O)(=O)N4CCCC4)ccc32)cc(OC)c1	-8.9%	-4.8%
Cc1ccc(C)c(NC(=O)Cn2cc(C(=O)c3ccc(Cl)cc3)c(=O)c3ccc(C)nc32)c1	-9.5%	-9.0%
COC(=O)c1[nH]c2cccc(OC)c2c1NC(=O)CCN1CCC(C)CC1	-10.7%	9.8%
Cc1cc(C)cc(C(=O)Nc2ccc(-c3nc4ncccc4o3)cc2)c1	?	?
CC(C)c1c(C(=O)NCc2cccnc2)cnn1-c1nccc(-c2cccs2)n1	-4.2%	-4.3%
CCc1ccc(NC(=O)N(C2CCC(C)CC2)C2CCN(C(C)=O)CC2)cc1 (centres undefined)	-10.9%	-15.4%
CN(Cc1ccccc1)S(=O)(=O)c1cccc(C(=O)O)c1	-2.4%	8.4%
CCCn1nnnc1SCC(=O)NCc1ccc(OC)cc1	-2.7%	4.8%
CC(=O)Nc1ccc(NC(=O)C(C)OC(=O)CCc2c[nH]c3ccccc23)cc1 (centres undefined)	i	-11.7%
Cc1nnc(SCC(=O)N2CCN(c3ccccc3)CC2)n(N)c1=O	i	-0.5%
CNC(=S)N/N=C(\C)c1ccc(Cl)s1	?	?
CCOc1cccc(C2C(C#N)=C(N)Oc3cc(C)oc(=O)c32)c1OCC (centres undefined)	.	-16.2%
O=c1cc(CN2CCN(c3ccccc3)CC2)c2ccccc2o1	50.9%[activator]	-4.8%
C=CCn1c(SCc2csc(C)n2)nc2sc3c(c2c1=O)CCCC3	-4.0%	-7.2%
CCOC(=O)c1[nH]c2c(c1Cc1ccccc1OC)C(=O)CC(c1ccc(OC)cc1)C2 (centres undefined)	i	-24.6%
COc1cccc2c1C(=O)c1c(O)c3c(c(O)c1C2=O)CC(O)(C(=O)CO)CC3OC1CC(N(C)C)C(O)C(C)O1 (centres undefined)	i	i
CN(CC(=O)N1CCc2ccccc21)S(=O)(=O)c1ccc(Br)s1	.	-23.4%
Cc1nnc(N2CCN(C(=O)Nc3cc(F)ccc3F)CC2)c2nn(-c3ccc(Cl)cc3)c(C)c12	11.2µM*	?
CC1=C(C(=O)Nc2cc(C(=O)N3CCC(C)CC3)ccc2C)SCCO1	10.1%[7.34 µM]	24.0%[7.34 µM]
N/C(=N\OC(=O)C(c1ccccc1)c1ccccc1)c1ccccn1	?	-23.2%
CCc1ccc(-c2nn(CC(=O)NC3CCCC3)c3c2cnc2ccc(C)cc23)cc1	-0.9%	11.5%
Cc1ccccc1NC(=O)C1CCN(C(=O)N2CCOc3ccccc32)CC1	i	-11.7%
CC(C)(C)NC(=O)N1CCC(CO)(Cc2ccccc2Cl)CC1	i	-5.7%
O=C(COC(=O)c1ccc(N2CCCC2=O)cc1)NCc1ccco1	-15.9%	-12.4%

Next section
SMILES	VACV mCherry inh	VACV Venus inh
CCOc1ccc(Cn2nnc(C(=O)NCCc3ccccc3)c2N)cc1	-12.0%	-4.0%
COc1ccc(CNC(=O)[C@@H](Cc2ccccc2)NC(=O)CC[C@H]2O[C@@H](n3ccc(=O)[nH]c3=O)[C@H](O)[C@@H]2O)cc1	4.7%	-2.0%
O=C(N/N=C/c1cccc(OC(=O)c2ccc([N+](=O)[O-])cc2)c1)c1cccnc1	-12.6%	-1.5%
Cc1[nH]n(-c2ncc(-c3ccccc3)s2)c(=O)c1C(c1ccc(Cl)cc1)C(C#N)C#N (centres undefined)	-18.9%	-13.5%
Cc1ccc2[nH]c(=O)c3cc(C(=O)NCCN4CCN(C)CC4)sc3c2c1	-11.5%	-6.7%
Cc1c(C(=O)N(Cc2ccco2)Cc2cccs2)oc2ccccc12	-17.4%	-15.2%
COCCNC(=O)/C(C#N)=C/c1cc(C)n(-c2ccc(C)cc2)c1C	-26.1%	?
COC/C=C/C1=CC2=CC(=O)C(C)(OC(=O)c3cnc4ccccc4n3)C(=O)C2=CN1CCCOC(C)C (centres undefined)	i	-1.5%
Cc1ccccc1-n1ccnc1SCC(=O)Nc1cccc(S(=O)(=O)NC2=NCCC2)c1	-18.4%	-10.4%
Cc1c(C(=O)N2CCN(C)CC2)sc2ncnc(NCC3(c4ccccc4)CCOCC3)c12	i	0.0%
Cc1ccc[n+](CC(=O)Nc2ccc(Cl)c([N+](=O)[O-])c2)c1	-3.3%	-14.3%
O=C(Nc1ccccc1-c1ccccc1)C12CC3CC(CC(C3)C1)C2	-8.4%	-9.1%
CCc1ccc(S(=O)(=O)/N=C2\C=C(Nc3cccc(C(=O)O)c3)C(=O)c3ccccc32)cc1	?	-15.6%
Cc1cccc(/C=N/NC(=O)c2ccc(NC(=O)c3ccccc3Cl)cc2)n1	-24.4%	2.6%
CCOC(=O)CSc1ncnc2c1cnn2-c1ccc(Cl)cc1	.	1.0%
COc1ccc(COC(=O)C2CC(=O)N(Cc3ccc(C)cc3)C2)cc1 (centres undefined)	i	-9.4%
Cc1c(Cc2ccc3c(c2)OCO3)sc(NC(=O)c2ccc3ccccc3c2)c1C(N)=O	-19.4%	-15.2%
Cc1ccc(-c2csc(NC(=O)c3ccc(C)o3)n2)cc1	-9.3%	12.9%
O=c1cc(-c2ccc3c(c2)OCO3)oc2ccccc12	-4.0%	1.7%
CC(=O)OCC1=C(C(=O)O)N2C(=O)C(NC(=O)c3ccc(COc4cccc(Cl)c4Cl)o3)C2SC1 (centres undefined)	i	-10.1%
Cc1cccc(C)c1NC(=O)C(NS(=O)(=O)c1ccc2c(c1)CCC(=O)N2)c1ccccc1 (centres undefined)	-12.1%	3.0%
COC(=O)c1ccc(C2c3c(oc4ccccc4c3=O)C(=O)N2CCCN2CCOCC2)cc1 (centres undefined)	-11.4%	-2.1%
Cc1cc(-c2nnc3n2N=C(c2ccc(F)cc2)CS3)n[nH]1	i[7.34 µM]	-6.5%[7.34 µM]
Cc1cc(C)cc(Nc2ccc3nonc3c2[N+](=O)[O-])c1	-14.8%	-11.5%
CCOc1cc(S(=O)(=O)NCc2ccc3c(c2)OCO3)c(C)cc1C	-11.5%	-24.7%

(list continues)
SMILES	VACV mCherry inh	VACV Venus inh
CCOC(=O)C1CCN(C(=O)c2cccc(S(=O)(=O)N3c4ccccc4CC3C)c2)CC1 (centres undefined)	i	3.0%
Cc1ccc2cc(CCNC(=O)c3ccc(S(=O)(=O)N4CCOCC4)cc3)c(=O)[nH]c2c1	i	-3.8%
O=C(OCC(=O)N1CCCC1)c1cnc(Cl)c(Cl)c1	i	-7.5%
COP(=O)(OC)C(NC(C)=O)C(Cl)(Cl)Cl (centres undefined)	-9.0%	-15.8%
COc1ccc(NC(=O)CCC(=O)Nc2nnc(CC(C)C)s2)cc1Cl	i	-4.3%
Cc1ccc(NC(=S)NCCc2cnc[nH]2)cc1C	-0.4%	-14.7%
Fc1ccc(Nc2nc(-c3ccncc3)nc3ccccc23)cc1	-6.6%	-12.0%
COc1ccc(CCNC(=O)c2cccc(C(=O)NCCc3ccc(OC)cc3)n2)cc1	i	-16.9%
CCOC(=O)N1CCN(C(=O)CSc2nc(=O)n3cc(C)ccc3n2)CC1	-15.2%	-15.0%
CCCC(=O)N1CC(=O)Nc2ccc(Cl)cc2C1c1ccc(F)cc1 (centres undefined)	-15.5%	-9.3%
Cc1cccc([C@@H](NC(=O)OC(C)(C)C)C(=O)OC(C)(C)C)c1	i	-8.1%
COc1ccc2c(c1)Sc1ccccc1N2	3.1%	1.6%
CC(C)C[C@H](NC(=O)c1nc[nH]c1C(=O)NCCNC(=O)OC(C)(C)C)C(=O)CNCCNC(=O)c1[nH]cnc1C(=O)N[C@@H](C)C(=O)OC(C)(C)C	i	-25.1%
CCOC(=O)C1=CN(Cc2cccc(-c3ccc4c(c3)OCO4)c2)S(=O)(=O)N(C)C1C (centres undefined)	i	0.0%
CN(C1CCCCC1)S(=O)(=O)c1ccc(NC(=O)Cn2nc(-c3ccc(F)cc3)ccc2=O)cc1	2.4%	-7.0%
COc1cccc(CC(=O)Nc2c(C(=O)N3CCN(c4ccccc4)CC3)oc3ccccc23)c1	-29.4%	-24.9%
COc1ccc(NC(=O)CC2Oc3ccc(C)cc3NC2=O)cc1 (centres undefined)	-2.4%	-4.6%
C[C@H]1C[C@H]2[C@@H]3CCC4=CC(=O)C=C[C@]4(C)[C@@]3(F)[C@@H](O)C[C@]2(C)[C@@]1(O)C(=O)CO	-14.6%	-12.7%
CCOc1ccc(CNC(=O)CCS(=O)(=O)c2cc3c4c(c2)CCN4C(=O)CC3)cc1OC	-7.8%	-9.6%
Cc1cccc(-c2nnc(SCC(=O)N3c4ccccc4CCc4ccccc43)n2C)c1	-11.4%	-9.7%
COC(=O)c1c(C)[nH]c(C(=O)CSc2nnnn2-c2ccccc2)c1C	.	-16.7%
CC(=O)c1ccccc1NC(=O)COC(=O)Cc1cccc(C(F)(F)F)c1	-12.9%	-9.9%
Cc1ncccc1C(=O)N1CCCC(C(=O)c2ccc3c4c(cccc24)CC3)C1 (centres undefined)	-12.7%	-10.2%
Cc1ccc(Cn2c(C3CCCN3c3nc(-c4ccc(F)cc4)cs3)nc3cc(C(=O)NCCCO)ccc32)cc1 (centres undefined)	-22.0%	?
COc1ccc(OC)c(C(=O)C2COC(=O)C2)c1 (centres undefined)	.	-1.6%

Reprinted from the part before: 6 compounds, then new ones.
SMILES	VACV mCherry inh	VACV Venus inh
Cc1cccc(-c2nnc(SCC(=O)N3c4ccccc4CCc4ccccc43)n2C)c1	-11.4%	-9.7%
COC(=O)c1c(C)[nH]c(C(=O)CSc2nnnn2-c2ccccc2)c1C	.	-16.7%
CC(=O)c1ccccc1NC(=O)COC(=O)Cc1cccc(C(F)(F)F)c1	-12.9%	-9.9%
Cc1ncccc1C(=O)N1CCCC(C(=O)c2ccc3c4c(cccc24)CC3)C1 (centres undefined)	-12.7%	-10.2%
Cc1ccc(Cn2c(C3CCCN3c3nc(-c4ccc(F)cc4)cs3)nc3cc(C(=O)NCCCO)ccc32)cc1 (centres undefined)	-22.0%	?
COc1ccc(OC)c(C(=O)C2COC(=O)C2)c1 (centres undefined)	.	-1.6%
Cc1ccc(N2OC3C(=O)NC(=O)C3C2c2ccco2)cc1 (centres undefined)	13.9%	-6.2%
O=C(Nc1nnc(N2CCCCCC2)s1)c1cc(-c2ccc(Br)cc2)on1	i	4.5%
COc1cccc(NC(=O)c2cccc(OC)c2OC)c1	-15.1%	-10.5%
Cc1ccc(C(=O)NC(C)c2ccccc2)cc1Br (centres undefined)	i	-9.5%
Fc1ccc2c(c1)Sc1ccc(Cl)cc1CC2N1CCN(CCC2OCCO2)CC1 (centres undefined)	-15.5%	5.0%
Cc1nc2nc(C)c(CCC(=O)NCc3ccccc3)c(C)n2n1	-4.3%	0.2%

Compounds as they come, and some 0.88% of all compounds hit somewhere here.
